CSC inhib: blocks cancer stem cells; hit rate 1.1% among 300,000; inhibition, % at 7.5 µM; cancer stem cell-like cells viability, luminescence;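 active = mean at 75% or more and at least half the replicates too; inconclusive = mean and replicates disagree; tested in HMLE shEcad cells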;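 also: 0% = median of negative and 100% = median of positive control wells; the first replicate is given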
Rce1 inh: yeast Ras-converting enzyme inhibition; Q03530; yeast membranes, quenched prenylated peptide cleavage fluorescence; calls only; hit rate 0.27% among 290,000;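 active = fall in fluorescence gain of 50% or more versus controls, with final raw signal at or below 3038400; inconclusive = same 50% fall but final raw signal above 3038400; inactive = fall in fluorescence gain under 50%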;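 also: plate controls were neutral control wells for no effect and wells lacking membranes for full effect; tested at 10 µM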
Target sequence (Q03530 whole entry, looked up): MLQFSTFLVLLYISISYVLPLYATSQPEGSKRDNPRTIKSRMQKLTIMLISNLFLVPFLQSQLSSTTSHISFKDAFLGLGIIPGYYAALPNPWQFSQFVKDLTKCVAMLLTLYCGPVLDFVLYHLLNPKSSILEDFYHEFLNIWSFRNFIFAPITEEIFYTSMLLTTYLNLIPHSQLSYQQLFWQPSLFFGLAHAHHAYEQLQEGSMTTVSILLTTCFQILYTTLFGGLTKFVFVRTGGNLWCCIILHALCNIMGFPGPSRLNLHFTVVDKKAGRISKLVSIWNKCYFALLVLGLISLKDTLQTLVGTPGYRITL
PABP FP inh: blocks human PABP binding to poly(A) RNA; AID 2014; fluorescence polarization; inhibition, % at 35 µM; hit rate 1% among 290,000;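 active = 50% or more with normal probe brightness, or confirmed in later tests; inconclusive = above 50% with abnormal brightness, or retests that disagree; inactive = below 50% or failed in later tests; about a fifth of its hits are not listed in these tables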;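 also: calls also rest on retests at 20 µM and on dose response follow-up; controls were probe without protein and protein plus probe with vehicle; some compounds called inactive have numbers as strong as hits; many hits fall short of the cut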
MT1-MMP act inh: MT1-MMP (human) activation inhibition | P50281 | HT1080 RFP-PRO-GFP cells, GFP/RFP ratio fluorescence, overnight; percent of plate control window, DMSO zero | GFP/RFP ratio change, % at 20 µM | hit rate 0.061% among 360,000 | AID 651647;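 active = GFP/RFP ratio change of at least 30% with cell ATP level not reduced by more than half and red fluorescence within 50% of control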; also: strong numbers were not always called active
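Assay system: RFP-PRO-GFP reporter HT1080 cells; read-out basis: GFP/RFP fluorescence ratio; benchmarks: DMSO wells and RFP-L50D-GFP cells; doses: 20 µM single dose, 1% DMSO; schedule: overnight cell settling, then overnight compound exposure, 37 °C, 5% CO2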
UUG fidelity: alters start codon recognition fidelity in yeast; S. cerevisiae UUG-firefly luciferase reporter, luminescence/redox ratio; activity score, % at 18.7 µM; hit rate 0.13% among 350,000; AID 602363;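 active = replicate mean at a twofold rise or more, about +100% in these data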;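 also: firefly luciferase made from a UUG start codon reports start codon fidelity; reporter light over untreated wells divided by growth signal over untreated wells; some hits fall short of that in this replicate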
eIF4H FP inh: inhibitors of RNA binding by human eIF4H; hit rate 0.94% among 290,000; inhibition, % at 35 µM; Q15056; eIF4H fluorescence polarization binding assay;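 active = 50% or more with normal probe brightness, or confirmed in later tests; inconclusive = above 50% with abnormal brightness, or retests that disagree; inactive = below 50% or failed in later tests; about a fifth of its hits are not listed in these tables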;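 also: calls also rest on retests at 20 µM and on dose response follow-up; 0% = protein and probe with vehicle and 100% = probe without protein; strong numbers were not always called active; many hits fall short of the cut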
HIV Env fusion: blocks HIV Env-driven cell-cell fusion | HeLa-JRFL Env/CEM21 cell fusion, luciferase | inhibition, % at 12.3 µM | hit rate 1.1% among 360,000;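 active = mean replicate inhibition score of at least 50 and every replicate individually at or above 50; inconclusive = only one of the two criteria met; inactive = mean below 50 and not all replicates reaching 50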;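 also: 0% = plate neutral controls and 100% = maraviroc near 300 nM; one replicate is shown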
eIF4H FP inh retest: also measured in eIF4H FP inh; calls as there; inhibition, %; compound at 20 µM; confirmation average;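 mean of two retest wells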
PABP FP inh retest: second read-out of PABP FP inh, no call of its own (marks repeat the call); inhibition, %; compound at 20 µM; confirmation repeats;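 mean of two retest wells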
MT1-MMP act inh RFP: further read-out of MT1-MMP act inh, marked with its call; RFP signal change, %; measured here: RFP expression control read;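 0 = vehicle wells; hits needed this value within 50% of zero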
The depositor's hits bear a star; i = inactive; ? = inconclusive; . = no result given. This is a subset, so the mix of outcomes need not match the whole.

SMILES	CSC inhib	Rce1 inh	PABP FP inh	MT1-MMP act inh	MT1-MMP act inh RFP	UUG fidelity	eIF4H FP inh	HIV Env fusion	others
CCOC(=O)c1sc2nc(C(C)C)c3c(c2c1N)CC(C)(C)OC3	6	i	3	1	-1	14	0	.
Cc1ccc(SCCC(=O)NC2CC2)cc1	-4	i	-8	0	-3	.	-4	15
Cc1ccc(S(=O)(=O)/N=C(/c2ccc(F)cc2)N2CCCC2)cc1	-2	.	28	2	8	.	1	1
Cc1cccc(NC(=O)CSc2cc(C)c(C#N)c3nc4ccccc4n23)c1	45	i	22	-12	-8	-10	14	13
CC(C)(C)c1ccc(Cn2nnc3c(=O)[nH]c(C4CCCN(C(=O)Cc5cccs5)C4)nc32)cc1 (stereo not drawn)	0	i	-8	5	-4	13	-12	63*
Cc1ccc(S(=O)(=O)N(C)c2ccc(N)cc2)cc1	2	i	8	1	10	-23	0	-109
COC(=O)c1ccc(C2C(Oc3ccc(OC)cc3)C(=O)N2CCc2ccc(OC)c(OC)c2)cc1 (stereo not drawn)	-4	i	15	0	1	-15	4	-19
Cc1nc(SCC(=O)N2CC(=O)Nc3ccccc32)c2c(C)c(C)sc2n1	1	i	-6	-6	-9	-16	-4	.
CC(C(=O)NC1CCCC1)N(Cc1ccco1)C(=O)c1snc(C(=O)NC2CCCC2)c1N (stereo not drawn)	1	i	8	-2	-5	.	5	.
CCN(CC)CCOC(c1ccccc1)c1ccc(C)cc1 (stereo not drawn)	24	i	-4	-5	1	.	-4	-17
NC(=O)c1ccc[n+](CCC[n+]2cccc(C(N)=O)c2)c1	-9	i	17	4	3	.	-4	-2
O=C(Nc1ccccc1C(=O)O)c1cccc(S(=O)(=O)Nc2ccc(Br)cc2)c1	12	i	9	1	2	-12	-8	-13
O=C(COC(=O)c1cc(S(=O)(=O)N2CCCCC2)ccc1N1CCOCC1)c1ccccc1	-5	i	.	-1	0	-5	.	-2
N#CC1=C2Nc3ccccc3N2C(=O)NC1(c1ccccc1)C(F)(F)F (stereo not drawn)	-12	i	3	6	-5	-5	-6	-7
COc1ccc(C(=O)c2nc3c(n2O)CCCC3)cc1OC	.	i	14	2	-1	-10	3	.
O=C(COc1ccccc1)NNC(=S)NC(=O)c1ccccc1	.	i	-2	7	15	-30	0	-8
Cc1cc(-c2nnc(CCC(=O)N(C)Cc3ccsc3)o2)no1	-25	i	3	-2	5	.	-2	11
COc1cc2c(cc1OC)C(SC)=NC1(CCCC1)C2	11	.	-2	-3	2	.	-6	21
Cc1ccc(-c2nnc(N3CCOCC3)c3ccccc23)cc1S(N)(=O)=O	.	i	.	13	-6	33	.	17
Cc1noc(C(=O)NCc2ccc(F)cc2)c1Cl	-3	i	2	1	6	-15	-5	-16
O=C(COc1ccccc1Cl)N1CCc2ccccc2C1	-7	i	4	-3	-5	-2	-8	-26
O=S(=O)(Nc1ccc(S(=O)(=O)Nc2ccccc2)cc1)c1ccccc1	2	i	2	2	-2	-8	6	-18
O=C(NCCC(=O)N1CCC2(CC1)NCCc1[nH]cnc12)c1cccc(Br)c1	-33	i	-12	1	4	.	0	-19
O=C(CSc1ncn[nH]1)Nc1ccc(S(=O)(=O)Nc2ncccn2)cc1	20	i	?	1	4	.	-10	2
COc1ccc(N2CCN(C(=O)c3cc4cc(Cl)ccc4[nH]3)CC2)cc1	8	i	6	-6	2	-5	-5	0
CC(SCc1cc(=O)n2c([nH]c3ccccc32)c1C#N)C(=O)O (stereo not drawn)	1	i	4	-21	11	-20	?	-21
COc1ccc(Cl)cc1N(CC(=O)NC1CC1)S(=O)(=O)c1ccc(C)c([N+](=O)[O-])c1	-12	i	0	-8	-7	-15	8	7
CCOC(=O)N1CCN(C(=O)CCc2c(C)nc3c(c(C)nn3-c3ccc(C)c(C)c3)c2C)CC1	-8	i	-2	-6	-8	1	-18	45
CC(=O)c1sc(NC(=O)CS(=O)(=O)c2ccccc2)nc1C	1	i	.	-2	0	.	.	-3
COc1ccc(C(=O)NC(Nc2ccccc2)C(Cl)(Cl)Cl)cc1 (stereo not drawn)	.	i	8	2	-8	-19	2	20
CSc1ccc(S(=O)(=O)NCC(=O)OCC(=O)N(C)C2CCCCC2)cc1[N+](=O)[O-]	-18	i	.	6	-1	.	.	5
CC(=O)Nc1ccc(NC(=O)c2ccccc2N(Cc2ccccc2)S(C)(=O)=O)cc1	-7	i	4	-3	1	-18	-3	-13
Cc1ccc(C2C(N)C(=O)N2c2ccc(C)cc2)cc1 (stereo not drawn)	3	i	98	2	6	9	0	-2	eIF4H FP inh retest=-5;PABP FP inh retest=4
O=C(NNc1nc(-c2ccccc2)cs1)c1ccccc1	-9	i	7	19	1	-13	2	10
O=C(Nc1nnc(-c2ccccc2)o1)Nc1ccccc1Cl	-2	i	5	0	4	-3	5	-16
CCOc1cc(N2CCOCC2)c(OCC)cc1NC(=O)Cc1ccc(OC)c(OC)c1	.	i	-7	4	-2	-2	0	?
CCn1c(=O)cc(OCC(=O)Nc2ccccc2N2CCN(C)CC2)c2ccccc21	.	i	-4	-4	-1	-6	-2	6
O=C(Nc1ccccc1)Nc1ccno1	-18	i	1	0	-1	.	-10	2
COc1cc(CNC(C)c2ccccc2)c(Br)cc1OCC(N)=O (stereo not drawn)	8	i	-13	-1	-2	-8	7	.
Cc1ccccc1OCC(=O)N/N=C/c1cc2ccccc2nc1Cl	6	i	-2	-5	-9	-22	-2	13
Cc1occc1C(=O)N/N=C/C(Br)=C\c1ccccc1	11	i	-10	10	-7	-24	-7	-374
O=C(CCCCC(=O)NN=Cc1ccccc1O)NN=Cc1ccccc1O	.	.	.	5	2	-23	.	11
O=c1c2ccccc2[nH]c(=S)n1CCN1CCN(Cc2ccccc2)CC1	-13	i	-4	-8	-3	-15	-7	-16
Cc1ccc(C(=O)Nc2sc3c(c2C(=O)NCc2ccco2)CCCC3)cc1	34	.	1	-2	-1	-11	12	-8
C=CC[C@H](CC(=O)NCCO)C(=O)NC[C@@H](OC(=O)[C@@H](CC=C)Cc1ccc(F)cc1)c1ccccc1	.	.	.	1	-4	-7	.	20
Cc1cc(C)c(C#N)c(SCC(=O)NC(C)(C)C)n1	1	i	0	3	6	-9	-5	1
Cc1cc(NC(=O)C2CCCN(S(=O)(=O)c3c(C)noc3C)C2)no1 (stereo not drawn)	-6	i	-5	2	3	-5	-2	9
COc1ccc(OC)c2c1CCC2=O	.	i	-2	-9	-2	-11	2	.
OC(Cc1cccnc1)(Cc1cccnc1)c1cc2ccccc2[nH]1	-4	i	-12	-3	1	.	6	1
Cc1cn([C@H]2C[C@H](O)[C@@H](CNCc3cnc(N4CCOCC4)nc3)O2)c(=O)[nH]c1=O	.	.	.	0	4	2	.	-132
O=C(CSCc1ccc(Cl)cc1)Nc1ccccc1O	-1	i	-15	-2	-7	-1	1	14
O=C(C1=C(O)C(=O)N(CC2CCCO2)C1c1cccnc1)c1ccco1 (stereo not drawn)	13	i	1	-2	2	-7	-7	-18
O=C(O)c1ccc(/C=N/Nc2ccc(Cl)nn2)cc1	17	i	17	1	5	-11	7	12
CCCc1cc(=O)oc2c3c(cc(OCC(=O)NCC4CCC(C(=O)O)CC4)c12)OC(C)(C)CC3 (stereo not drawn)	-17	?	5	16	-3	-8	0	.
Cc1cc(NC(=O)CSCC(=O)OCC(=O)Nc2cc(C)c(C)cc2[N+](=O)[O-])no1	-10	i	.	7	5	.	.	12
CC(C)n1c(COc2ccccc2)nc2ccccc21	-6	i	5	6	-4	-18	-2	-9
CN(C)S(=O)(=O)c1cccc(C(=O)OCC(=O)Nc2ccccc2OC(F)F)c1	-2	i	-8	-4	0	-14	7	-9
CC(=O)C1=CN(CC2CCCCC2)CCC1=O	.	.	.	1	4	-16	.	1
CCC(C)c1ccc(NC(=S)N2CCCC2)cc1 (stereo not drawn)	0	i	-3	-1	4	-32	-9	-8
Cc1cc(C)n(CC2CC(=O)N(c3cc(Cl)cc(Cl)c3)C2=O)n1 (stereo not drawn)	-4	i	1	2	8	-9	6	.
New compounds follow:
SMILES	CSC inhib	Rce1 inh	PABP FP inh	MT1-MMP act inh	MT1-MMP act inh RFP	UUG fidelity	eIF4H FP inh	HIV Env fusion	others
O=C(COc1ccccc1)NCC1CCCO1 (stereo not drawn)	-14	i	-3	1	2	-14	10	.
COc1ccc(C(=O)C(CN2CCOCC2)c2ccccc2)cc1F (stereo not drawn)	.	i	12	-9	-19	.	-6	.
COc1cc(C(=O)NCC(c2ccco2)N2CCCC2)ccc1OCc1c(C)noc1C (stereo not drawn)	4	i	-2	-11	-15	-13	2	-49
Cc1onc(-c2ccccc2)c1C(=O)Nc1ccc(OC(C)C)cc1	-4	i	0	-5	0	-6	-3	-10
COc1cc(C(=O)N2CCN(c3cccc(Cl)c3)CC2)ccc1OCC(=O)N1CCOCC1	.	.	.	-3	-1	-8	.	-1
O=C(CSc1ccc(-c2cccnc2)nn1)Nc1ccc(F)cc1F	8	i	19	2	-2	-8	-10	1
C=CC[C@@H](Cc1ccc(F)cc1)C(=O)OC[C@H]1CCCN1C(=O)[C@H](CC=C)CC(=O)NCCO	-12	.	.	1	2	14	.	9
COc1ccc(-c2nnc3ccc(SCC(=O)Nc4nc5ccccc5s4)nn23)cc1OC	12	i	-4	5	1	-23	3	.
CC1CC(C)CN(c2oc(-c3ccccc3F)nc2C#N)C1 (stereo not drawn)	6	i	43	0	-2	-13	-8	-7

In the list so far, eight contain an NH in an aromatic ring:
SMILES	CSC inhib	Rce1 inh	PABP FP inh	MT1-MMP act inh	MT1-MMP act inh RFP	UUG fidelity	eIF4H FP inh	HIV Env fusion	others
CC(C)(C)c1ccc(Cn2nnc3c(=O)[nH]c(C4CCCN(C(=O)Cc5cccs5)C4)nc32)cc1 (stereo not drawn)	0	i	-8	5	-4	13	-12	63*
O=C(NCCC(=O)N1CCC2(CC1)NCCc1[nH]cnc12)c1cccc(Br)c1	-33	i	-12	1	4	.	0	-19
O=C(CSc1ncn[nH]1)Nc1ccc(S(=O)(=O)Nc2ncccn2)cc1	20	i	?	1	4	.	-10	2
COc1ccc(N2CCN(C(=O)c3cc4cc(Cl)ccc4[nH]3)CC2)cc1	8	i	6	-6	2	-5	-5	0
CC(SCc1cc(=O)n2c([nH]c3ccccc32)c1C#N)C(=O)O (stereo not drawn)	1	i	4	-21	11	-20	?	-21
O=c1c2ccccc2[nH]c(=S)n1CCN1CCN(Cc2ccccc2)CC1	-13	i	-4	-8	-3	-15	-7	-16
OC(Cc1cccnc1)(Cc1cccnc1)c1cc2ccccc2[nH]1	-4	i	-12	-3	1	.	6	1
Cc1cn([C@H]2C[C@H](O)[C@@H](CNCc3cnc(N4CCOCC4)nc3)O2)c(=O)[nH]c1=O	.	.	.	0	4	2	.	-132
